High-throughput results: PubChem BioAssay, National Center for Advancing Translational Sciences (NCATS)
GLA inh pH 4.5 = blocks human alpha-galactosidase A at pH 4.5 | activity change, negative = inhibition, % at 105 µM | purified enzyme, 4-MU-alpha-Gal fluorescence, pH 4.5 | 230,000 tested, under 10 active; inconclusive = small, poorly fitted or top-dose-only inhibition, or a rising curve; inactive = flat fitted curve, though single readings scatter; no compound was filed as active;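 note: 0% = full activity with enzyme and -100% = basal without enzyme; dose as in the result columns while the protocol names 77 µM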
Target sequence (P06280 whole entry, looked up): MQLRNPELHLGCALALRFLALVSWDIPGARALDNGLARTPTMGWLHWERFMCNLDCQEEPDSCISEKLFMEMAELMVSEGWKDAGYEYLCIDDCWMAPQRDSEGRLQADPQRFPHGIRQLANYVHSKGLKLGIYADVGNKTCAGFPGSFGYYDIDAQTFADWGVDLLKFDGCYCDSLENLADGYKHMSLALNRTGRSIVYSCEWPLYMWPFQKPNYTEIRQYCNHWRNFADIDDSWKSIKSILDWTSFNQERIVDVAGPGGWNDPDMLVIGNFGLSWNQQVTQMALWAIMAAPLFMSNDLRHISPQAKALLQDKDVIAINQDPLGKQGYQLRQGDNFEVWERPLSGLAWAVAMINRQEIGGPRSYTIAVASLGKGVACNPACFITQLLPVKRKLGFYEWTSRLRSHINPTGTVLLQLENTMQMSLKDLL
Rango-impB inh = inhibitors of Rango-importin beta complex formation; Q14974; Rango CFP/YFP FRET sensor + importin beta, 45 min; Potency, µM (top dose mostly 92.2 µM), without a hit: at the top dose inhibition of complex formation; 340,000 tested, 0.031% active; AID 540263; active = rising FRET ratio curve, often small or poorly fitted; inconclusive = mostly compound fluorescence or quenching in the first reads; inactive = flat curves in all reads;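 note: potency is the fitted concentration of half-maximal effect; 0% = DMSO wells and 100% = buffer wells lacking importin beta; nearly all actives have a fitted effect of over 15% in size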
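FRET biosensor (snurportin 1 IBB flanked by EYFP and cerulean), 50 nM, with compound 5 min, then 0.125 microM importin beta in PBS, 1 mM DTT, 0.02% Tween-20, 0.1% BSA. CFP/YFP ratio read after 45 min at room temperature; pre-read flags interference.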
miR-21 FLuc = miR-21 reporter, rising signal; HeLa miR-21 FLuc reporter, luciferase, 48 h; Potency, µM (doses to about 38.3 µM), for inactives: top-dose reporter change, positive = more light; 340,000 tested, under 10 active; AID 2288; active = well fitted rising curve with a large enough effect; inconclusive = small, poorly fitted or top-dose-only effect; inactive = no such curve, though single readings can be large or run the other way;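 note: % of control where 0% means no effect; miR-21 action dims this reporter so a rising signal means less miR-21 action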
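Luminescence from a firefly luciferase reporter carrying a miR-21 binding site downstream, stably expressed under a CMV promoter in HeLa cells that make miR-21 endogenously, reports miRNA modulation after 48 h compound exposure up to approximately 40uM final.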
Rango dissoc inh = inhibition of RanGTP-driven Rango-importin beta dissociation. AID 540253. Potency, µM (titrated, usually from 46.1 µM), for the others: at the top dose activity change, negative = inhibition. Biochemical FRET Rango-importin beta, RanGTP-induced dissociation. 340,000 tested, 0.071% active. O95149+P62826; active means falling FRET ratio curve, often poorly fitted, with flat reads before Ran was added; inconclusive means other falling curves, or compound fluorescence or quenching; inactive means flat or rising ratio curve;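 note: potency is the fitted concentration of half-maximal effect; % of control where 0% means no effect; nearly all actives have a fitted effect of over 45% in size; -100% = wells without RanGTP and RCC1; the record marks most hits as doubtful in a second field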
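Recombinant Rango FRET biosensor (EYFP–snurportin 1 IBB–cerulean CFP10) at 0.1 uM premixed with 0.25 uM importin beta in PBS, 1 mM DTT, 0.02% Tween-20, 0.1% BSA. Compound added 5 min; RanGTP-RCC1 (0.6 uM Ran, 2 mM GTP, 0.2 uM RCC1) then triggers release, read at 45 min.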
* hit, by the source's call; ? = inconclusive; · = not tested or not shown; & = joins results of further samples.

GLA inh pH 4.5,Rango-impB inh,miR-21 FLuc,Rango dissoc inh,Compound
·,1.6%,1%,-8%,COc1ccc2c(c1)c(-c1csc(N)n1)c(C)n2C
·,1.2%,·,2%,O=C1C=C(c2ccc3c(c2)OCCO3)C[C@@H](c2ccc(F)cc2)C1
-8,0.0%,1%,-1%,CCN(Cc1ccncc1)Cc1nc(-c2ccc(C(=O)OC)cc2)no1
-24,2.5%,3%,0%,Cc1csc2c(N3CCN(C(=S)Nc4ccc(F)cc4F)CC3)ncnc12
2,·,-3%,·,CCCN1C(=O)c2cc(C(=O)NCc3cccs3)ccc2C1O (configuration not stated)
·,-0.3%,-16%,-4%,COc1ccc(NC(=S)NC2CC3CCC2C3)c(OC)c1 (configuration not stated)
0,3.0%,-2%,0%,Cc1nn(Cc2ccc([N+](=O)[O-])cc2)c(=O)n1-c1cccc(Cl)c1
1,-0.2%,-6%,-5%,CC(C)=C1C2CC2C2C(C(=O)O)C12 (configuration not stated)
·,1.3%,·,-11%,O=C(CCN1C(=O)C2CC=CCC2C1=O)OCC(=O)c1ccc(F)cc1 (configuration not stated)
-3,-4.0%,9%,7%,O=C1CC(N(CCc2ccccc2)C(=S)Nc2ccccc2)C(=O)N1c1ccc(F)cc1 (configuration not stated)
0,2.3%,-8%,12%,CC(CCc1ccco1)NC(=O)Cn1ncc2c(=O)oc3ccccc3c21 (configuration not stated)
·,-2.1%,-1%,0%,O=C(Nc1ccccc1Cl)Nc1ccnn1C1CCN(C(=O)CCN2CCCO2)CC1
·,-0.5%,·,-14%,O=C(c1ccc2c(c1)OCCO2)N1CCN(S(=O)(=O)c2c(F)cccc2F)CC1
-5,6.3%,-19%,-14%,O=C(Nc1cccnc1)c1cnn2cccnc12
-4,-3.5%,-1%,-2%,O=P(COCCOCCOCP(=O)(c1ccccc1)c1ccccc1)(c1ccccc1)c1ccccc1
·,0.4%,·,39%,Cc1cc(C)n2nc(C(=O)OCC(=O)c3ccccc3Cl)nc2n1
·,?,·,-3%,CCN1CCN(c2ccc(Nc3ccnc4ccccc34)cc2)CC1
·,0.1%,·,-2%,C[C@H](O)[C@@H]1C(=O)N2CCc3ccc(N4CCN(C)CC4)cc3[C@@H]2C[C@@H]1N(C)C(=O)Nc1cc(Cl)cc(Cl)c1
-7,?,-48%,?,N/N=C(\Cc1cscn1)c1ccc(O)cc1O
·,2.5%,·,-1%,CN(C(=O)CN1C(=O)NC2(CCc3ccccc32)C1=O)C1CCCCC1 (configuration not stated)
-8,4.3%,23%,27%,COc1ccccc1C(C)NC(=O)c1ccc(C)o1 (configuration not stated)
·,0.6%,-1%,9%,Cn1c(SCc2ccccc2Cl)nc2c1c(=O)[nH]c(=O)n2C
·,1.3%,-7%,6%,COc1ccc(CCNC(=O)C/C(C)=N/NC(=O)COc2ccc(C)cc2Br)cc1OC
4,?,-38%,7%,Cc1nonc1NC(=O)CSc1nc2c(C)cccc2cc1C#N
-3,2.5%,-5%,2%,O=C1C(Cc2ccccc2)NC(=S)N1c1ccccc1 (configuration not stated)
·,-0.8%,·,-9%,CCC[C@@H](CN1CCC[C@H]1CN1C(N)=NC[C@H]1CC(C)C)N1C[C@@H](Cc2ccccc2)N(CCCC2CCCC2)C1=N
·,-3.4%,·,-15%,COc1ccccc1N1CCN(C(=O)CC(NC(=O)c2ccccc2Cl)c2ccccc2)CC1 (configuration not stated)
·,-3.5%,-8%,22%,Cc1ccc(CCNC(=O)c2ccc3nc4ccc(Cl)cc4c(=O)n3c2)cc1
14,?,-11%,?,CN1CCc2c(sc3nc(SCC(=O)N4CCOCC4)nc(N)c23)C1
6,4.3%,-2%,6%,CN(C)C(=O)CSc1nnc(-c2cccnc2)n1-c1ccccc1
·,?,·,?,COc1ccc(/C(C)=N/NC(=O)c2cccc(S(=O)(=O)N3CCCC3)c2)c(O)c1
-2,4.6%,-4%,-10%,CCCC/C(C)=N/NC(=O)C(=O)NCCc1ccccc1
·,1.5%,·,-6%,Cc1ccc(S(=O)(=O)N(CC(=O)Nc2cc(C)ccc2C)C(=O)N2CCN(C)CC2)cc1
·,-1.7%,-2%,-2%,CC(C)Oc1ccc(C(CC(=O)N2CCOCC2)C(C)C)cc1 (configuration not stated)
·,-1.5%,6%,4%,CC(C)c1ccc(NC(=O)CCNC(=O)Cn2cnc3ccccc3c2=O)cc1
8,-1.2%,-2%,6%,CCc1c(C)c2ccc(OCC(=O)OC)cc2oc1=O
2,·,-5%,·,CCOC(=O)c1nn(-c2ccc(Cl)cc2Cl)c(=N)c(C#N)c1C
-4,0.0%,-57%,-1%,COc1ccc(CCNC(=O)Nc2ccccc2[N+](=O)[O-])cc1
·,0.3%,·,8%,COc1ccc(C(=O)NC2CCCCCCC2)cc1OC
-16,3.2%,22%,-3%,COc1cc(/C=C2/SC(=S)NC2=O)ccc1OS(=O)(=O)c1ccc(C)cc1
·,0.7%,3%,3%,COc1ccc(C(=O)N2CCN(c3nc(C4CC4)nc4sc(C)c(C)c34)CC2)cc1
·,?,·,15%,COc1ccc2c(c1)C(CC(=O)NN)CCC2 (configuration not stated)
·,-1.9%,14%,9%,CC(=O)c1cn(CC(=O)Nc2ccccc2C(F)(F)F)c2ccccc12
1,0.8%,-27%,-5%,O=C1CCCN1CC(CN1CCOCC1)Sc1nc2ccccc2c(=O)n1-c1ccccc1 (configuration not stated)
7,?,-7%,?,CC(=O)Nc1nn(C)c2nc3cc(C)ccc3cc12
·,-2.9%,·,0%,CC1CCCC(NC(=O)CN2C(=O)NC(c3ccccc3)(c3ccccc3)C2=O)C1C (configuration not stated)
-1,-2.1%,-1%,-2%,CCOc1ccc(N(CC(=O)Nc2cccc(C)c2C)S(=O)(=O)c2c(C)[nH]c(=O)[nH]c2=O)cc1
0&0,-0.4%,·,-4%,CC(=O)NNC(=O)N1Cc2ccccc2Oc2ccc(Cl)cc21
1,-0.9%,-3%,2%,CCc1nnc(N/N=C/c2ccccc2F)n1N
-5,0.0%,-32%,30%,COc1ccccc1NC(=O)Nc1ccc(C(=O)N2CCCCC2)cc1

The list continues:
GLA inh pH 4.5,Rango-impB inh,miR-21 FLuc,Rango dissoc inh,Compound
·,-1.8%,·,?,CCN(CC(=O)Nc1ccc(OC)cc1)C(=O)c1ccc(OCc2c(C)noc2C)cc1
6,-3.5%,0%,8%,CCCn1c(N)c(C(=O)CSc2nc3ccccc3c(=O)n2-c2ccc(OC)cc2)c(=O)[nH]c1=O
0,2.9%,16%,-8%,CCOc1cc(CNc2ccc3c(c2)OCCO3)cc(Br)c1OC
·,2.6%,5%,11%,COc1ccc(CN2CCCN(S(=O)(=O)c3ccc(Br)cc3)CC2)cc1
-2,6.8%,-31%,3%,O=C(CSc1nnc(-c2ccccc2Br)o1)Nc1cccc2ccccc12
-8,-4.3%,-2%,-19%,Fc1ccc(N2CCN(c3nc(-c4ccco4)cc(C(F)(F)F)n3)CC2)cc1
-3,2.0%,8%,8%,CCOC(=O)c1sc(N)c(C#N)c1CSc1nc2ccc(OCC)cc2[nH]1
2,3.7%,9%,0%,COC(=O)COc1cccc(NC(=O)c2ccc(C)cc2)c1
·,?,10%,?,CC(=O)Oc1ccc2c(C)c(CC(=O)N3CCN(C(=O)C4COc5ccccc5O4)CC3)c(=O)oc2c1C (configuration not stated)
3,-2.5%,3%,-15%,CCn1c(SCC(=O)Nc2ccc(S(N)(=O)=O)cc2)nnc1-c1ccccc1OC
·,7.3%,·,-4%,O=C(CCc1ccc(S(=O)(=O)N2CCOCC2)cc1)OCC(=O)c1ccccc1F
7,0.3%,-11%,18%,Cc1ccc(-c2cnc(NC(=O)CCC(=O)N(C)Cc3ccccc3)n2C)cc1
5,?,-5%,-11%,CC(C)(C)c1nc(SCC(=O)c2ccccc2)c2ccccc2n1
·,-3.0%,0%,7%,NC(=O)CSc1nnc2n(N)c(=O)c3ccccc3n12
·,3.0%,·,13%,Cc1ccc(S(=O)(=O)N2CCOCC2)cc1C(=O)OC(C)C(=O)NC1CCCC1 (configuration not stated)
5,4.9%,-46%,1%,CC(C)CCSc1nc2ccccc2[nH]1
-1,-4.3%,-13%,9%,O=S(=O)(c1cccc2cccnc12)n1cnc2ccccc21
·,4.8%,·,0%,CC(=NNC(=S)N1CCCCCC1)c1cccc2cccnc12
·,0.5%,·,-10%,O=C(CNC(=O)c1cc(Cl)cc([N+](=O)[O-])c1)OCC(=O)N1CCCCC1
-3,0.2%,4%,39%,CCOc1ccc(NC(=S)Nc2ccc(C)c([N+](=O)[O-])c2)cc1
·,4.8%,-1%,25%,O=C(C1CCCN(c2ncnc3c2nc2n3CCCCC2)C1)N1CCN(c2ccccc2F)CC1 (configuration not stated)
·,0.9%,-11%,3%,OC(CNC1CCCC1)COc1ccccc1Br (configuration not stated)
8,2.5%,-49%,-4%,Cc1cc(C)n(-c2nncc(-c3ccccc3)n2)n1
·,0.1%,·,-6%,COc1ccc(S(=O)(=O)N2CCCCC2)cc1NC(=O)C1CCCC1
·,3.0%,·,-11%,CNC(=O)c1cc(NC(=O)N(CCC#N)CCN(C(=O)NC(Cc2ccccc2)C(=O)NC(CC(C)C)C(=O)NC)c2ccccc2)ccc1OC (configuration not stated)
·,0.0%,1%,12%,Cc1c(C)c2ccc(OC(C)C(=O)NC3CCN(Cc4ccccc4)CC3)cc2oc1=O (configuration not stated)
·,1.4%,-33%,-10%,COc1cc(/C=N/n2nnnc2N)ccc1OC(C)C
-12,-1.4%,-15%,9%,O=c1cc(N2CCCCC2)nc2n1CCCS2
-5,0.7%,-1%,17%,Cc1ccc(NS(=O)(=O)c2ccc(CCC(=O)N3CCOCC3)cc2)cc1
-8,0.0%,25%,-1%,CCOC(=O)C1(CCOc2ccccc2)CCN(Cc2cccn2-c2cccnc2)CC1
-16,1.8%,-6%,1%,O=c1[nH]c(/C(Cl)=C/c2cc(Cl)ccc2O)nc2cc(Cl)ccc12
-4,-2.7%,-15%,-8%,O=C(/C=C/c1cccc([N+](=O)[O-])c1)NCCSCc1ccco1
0,3.5%,-5%,-4%,CCN(CC)CCn1cnc2c([nH]c3cccc(OC)c32)c1=O
·,5.0%,·,14%,Cc1ccccc1C(=O)OCC(=O)NCC1COc2ccccc2O1 (configuration not stated)
-7,-1.0%,-4%,-5%,O=C(CN1CCCN(S(=O)(=O)c2ccc(F)cc2)CC1)Nc1ccccc1Br
·,-5.3%,·,8%,CC(C)(C)c1ccc(S(=O)(=O)N2CCN(C(=O)c3ccc4c(c3)C(=O)N(Cc3ccncc3)C4=O)CC2)cc1
-3,-1.8%,1%,33%,COc1ccc(CNC(=O)CCCn2nc([N+](=O)[O-])cc2C)cc1
-4,?,-11%,-1%,Cc1ccccc1-n1nc(C)c(N=O)c1N
-7,1.5%,1%,0%,O=C(N/N=C/c1ccc[nH]1)c1cccc([N+](=O)[O-])c1
·,3.0%,9%,6%,CC(C)C(OC(=O)c1cccs1)C(=O)NCc1ccc(F)cc1 (configuration not stated)

Single records, from the list above.
`CC(CCc1ccco1)NC(=O)Cn1ncc2c(=O)oc3ccccc3c21` (configuration not stated) reads GLA inh pH 4.5: 0; Rango-impB inh: 2.3%; miR-21 FLuc: -8%; Rango dissoc inh: 12%
`CNC(=O)c1cc(NC(=O)N(CCC#N)CCN(C(=O)NC(Cc2ccccc2)C(=O)NC(CC(C)C)C(=O)NC)c2ccccc2)ccc1OC` (configuration not stated) reads GLA inh pH 4.5: ·; Rango-impB inh: 3.0%; miR-21 FLuc: ·; Rango dissoc inh: -11%

5 of the compounds above, with two lines to a compound:
Every second line gives: GLA inh pH 4.5	Rango-impB inh	miR-21 FLuc	Rango dissoc inh
O=C(/C=C/c1cccc([N+](=O)[O-])c1)NCCSCc1ccco1
 : -4	-2.7%	-15%	-8%
CCN(CC)CCn1cnc2c([nH]c3cccc(OC)c32)c1=O
 : 0	3.5%	-5%	-4%
Cc1ccccc1C(=O)OCC(=O)NCC1COc2ccccc2O1 (configuration not stated)
 : ·	5.0%	·	14%
O=C(CN1CCCN(S(=O)(=O)c2ccc(F)cc2)CC1)Nc1ccccc1Br
 : -7	-1.0%	-4%	-5%
CC(C)(C)c1ccc(S(=O)(=O)N2CCN(C(=O)c3ccc4c(c3)C(=O)N(Cc3ccncc3)C4=O)CC2)cc1
 : ·	-5.3%	·	8%

The list is partial; the hit share may differ from the screen's.
